Screening data deposited in PubChem by National Center for Advancing Translational Sciences (NCATS).
Vaccinia Venus – vaccinia inhibition (Venus reporter); Vaccinia virus Venus reporter expression, fluorescence; Potency, µM (titrated, usually from 36.5 µM), inactives show top-dose activity change, negative = inhibition, actives largely listed as inhibitors; hit rate 0.46% among 330,000; AID 720580; active means well fitted inhibition curve with a large enough effect; inconclusive means small, poorly fitted or top-dose-only effect; inactive means no such curve, though single readings can be large or run the other way; tested in A549 cells; further: nearly all actives have a fitted effect of over 30% in size; inactives centre near -10
VACV mCherry inh – vaccinia inhibition (mCherry reporter) | Vaccinia virus mCherry reporter infection, fluorescence; about a quarter of the inactives have no number | Potency, µM (series often up to 36.5 µM), for the others: at the highest dose activity change, negative = inhibition, hits mostly inhibitors | hit rate 0.63% among 310,000 | AID 720579; active = well fitted inhibition curve with a large enough effect; inconclusive = small, poorly fitted or top-dose-only effect; inactive = no such curve, though single readings can be large or run the other way; tested in A549 cells; further: nearly all actives have a fitted effect of over 35% in size; inactives centre near -10
Numbers without * were called inactive; i = inactive; ? = inconclusive; . = no result given; [ ] = dose if it differs, or a comment. On the % scale 0 is the no-effect control and ±100 the full control effect; potency means the concentration at half of the fitted maximal effect.

SMILES | Vaccinia Venus | VACV mCherry inh
Cc1ccc2[nH]c3c(=O)n(CC(=O)Nc4ccc(Br)cc4C)ncc3c2c1 | 4.9% | 1.6%
FC(F)(F)c1cccc(N2CCCCC2)c1 | 8.6% | 11.8%
CCOc1ccc(N2CC(NC(=O)c3ccc(S(=O)(=O)N4CCOCC4)cc3)CC2=O)cc1 (stereo not drawn) | -12.2% | -13.7%
CSc1ccc(C2c3c(oc4cc(C)cc(C)c4c3=O)C(=O)N2CCO)cc1 (stereo not drawn) | -14.2% | -17.3%
O=[N+]([O-])c1ccc2oc(C(O)c3cccc(Cl)c3)cc2c1 (stereo not drawn) | -5.4% | -13.3%
O=c1oc2c3c(ccc2c2ccccc12)OCN(Cc1cccc(Cl)c1)C3 | -12.8% | -10.0%
COc1ccc(C(=O)c2cnc(C(C)C)n2C)cc1 | -14.2% | -29.5%
CC1(c2ccccc2)CC(c2ccccc2)=Nc2ccccc2N1 (stereo not drawn) | 7.6% | -5.2%
Cc1cc(C(=O)Nc2cccc(C(=O)O)c2)oc1C | -9.7% | -11.3%
CCC(c1nnnn1-c1ccc2c(c1)OCCO2)N1CCN(c2ccccn2)CC1 (stereo not drawn) | -4.2% | 20.6%
CCC(C)NC(=O)Cn1c(=O)n(-c2ccc(Cl)c(Cl)c2)c(=O)c2c(C)c(C(=O)N(CC)CC)sc21 (stereo not drawn) | -4.8% | -10.6%
COC(=O)C(CC(=O)c1ccc(Br)cc1)n1cccn1 (stereo not drawn) | -3.2% | -15.0%
CCOc1ccccc1NC1c2ccccc2C(=O)N1c1cccnc1 (stereo not drawn) | 5.3% | 5.4%
Cc1nnc2sc(SCC(=O)Nc3cccc(Cl)c3)nn2c1=O | -12.3% | -22.7%
COc1ccc2oc(=O)c(C(=O)NCCc3c(C)[nH]c4c(C)cccc34)cc2c1 | -1.8% | -6.9%

Entries shown so far with bromine, in the order listed:
SMILES | Vaccinia Venus | VACV mCherry inh
Cc1ccc2[nH]c3c(=O)n(CC(=O)Nc4ccc(Br)cc4C)ncc3c2c1 | 4.9% | 1.6%
COC(=O)C(CC(=O)c1ccc(Br)cc1)n1cccn1 (stereo not drawn) | -3.2% | -15.0%

Other compounds
SMILES | Vaccinia Venus | VACV mCherry inh
CC1=NN(c2ccccc2)C(=O)C1/C=C1\C(=O)NC(=O)N(c2cc(C)cc(C)c2)C1=O (stereo not drawn) | -8.1% | .
N#Cc1c(C(F)(F)F)cc(=O)n2c1[nH]c1ccccc12 | ? | 10µM*
CCOc1ccc(S(=O)(=O)NC(C)C(=O)NCc2cccnc2)cc1 (stereo not drawn) | 3.6% | i
Cc1[nH]c2ccccc2c1C1(O)C(=O)N(Cc2ccccc2)c2ccc(Cl)cc21 (stereo not drawn) | -6.1% | -15.7%
Cc1ccc(C2Nc3ccccc3-n3c(-c4ccccc4)c4c(=O)n(C)c(=O)n(C)c4c32)o1 (stereo not drawn) | -8.6% | -21.3%
Cc1cc(CN(C)C(=O)c2cc(COc3ccc(C)c(C)c3)on2)on1 | -11.3% | -15.9%
CC(NC(=O)c1ccncc1)C(c1cccs1)N1CCOCC1 (stereo not drawn) | -17.9% | -14.4%
CC(C)(C)c1cc(NC(=O)COC(=O)C2CC2)n(-c2ccccc2)n1 | -5.7% | -5.1%
c1ccc(-n2c(-c3cccs3)nc3nc4ccccc4nc32)cc1 | -8.6% | -10.1%
COc1ccccc1C(=O)Nc1c(C(=O)N(CCN(C)C)Cc2ccco2)oc2ccccc12 | -14.9% | -21.7%
COCCNC(=O)c1cccc(OC2CCN(Cc3ccccc3OCCO)CC2)c1 | -9.0% | i
COc1cccc(CN(C)Cc2nc3cc(C(F)(F)F)ccc3c(=O)[nH]2)c1 | 6.5% | -3.4%
N#Cc1c(NC(=O)/C=C/c2ccco2)sc2c1CCCC2 | ? | ?
COc1cccc(CNC(=O)C2CCCN(c3nnc(-n4c(C)ccc4C)s3)C2)c1OC (stereo not drawn) | -9.0% | -15.6%
COc1ccccc1CNC(=O)CCNS(=O)(=O)c1cccc2nonc12 | -9.6% | i
COc1ccccc1CNS(=O)(=O)c1c(C(=O)N2CCCCC2)c(C)n(C)c1C | -6.7% | -13.2%
CN(CC(=O)NCCc1ccc(S(N)(=O)=O)cc1)c1ccccc1 | 1.6% | 4.0%
Cc1ccc(C)c(NC(=S)N(Cc2ccco2)C(C)c2cccs2)c1 (stereo not drawn) | -2.6% | i
Cc1ccc([C@H]2N[C@]3(CCCN(Cc4ccc(Br)cc4)C3=O)[C@H]3C(=O)N(C)C(=O)[C@@H]23)cc1 | -13.7% | -11.2%
Nc1ccccc1C(=O)NC(=O)Nc1ccc(Oc2ncc(Br)cn2)c(Cl)c1 | ? | -12.3%
Cc1nc(SCC(O)CCl)c([N+](=O)[O-])[nH]1 (stereo not drawn) | -24.0% | .
CCOC(=O)c1sc(=S)n(-c2ccc(OC)cc2)c1C | -7.5% | i
Cc1ccc(C)c(-c2ccc(=O)n(C(C)C(=O)Nc3ccccc3C(F)(F)F)n2)c1 (stereo not drawn) | -4.4% | -10.0%
Oc1ccc(N2CCN(C(=S)NCCc3ccccc3)CC2)cc1 | ? | 3.5%[1.46 µM]
O=C(NCCCNc1ccc(C(F)(F)F)cc1[N+](=O)[O-])c1cc(F)c(F)cc1Cl | ? | -22.7%
C[C@@H]1CN(S(=O)C(C)(C)C)[C@H](CCO)/C1=C\c1ccccc1 (stereo partly drawn) | 12.3% | -15.7%
O=C(COC(=O)/C=C/c1ccc(F)cc1)NC1CCCC1 | -13.9% | -21.1%
CCc1cc2c(=O)n(CC(=O)NCCc3ccc(OC)c(OC)c3)cnc2s1 | -13.8% | i
CNC(=O)c1c(NC(=O)c2ccc(S(=O)(=O)N3CCC(C)CC3)cc2)sc2c1CCC2 | -14.3% | -6.6%
CCCSc1ccc([C@@H]2[C@@H]3C(=O)N(C)C(=O)[C@@H]3[C@]3(C(=O)OC)CCCCN23)cc1OC | -25.0% | -6.6%
O=C(NCCCCCCNC(=O)N1CCCCCC1)N1CCCCCC1 | -6.3% | i
COc1ccc(-n2nc3c(c2NC(=O)c2cc(Br)ccc2Cl)CS(=O)C3)cc1 (stereo not drawn) | -10.2% | -15.2%
CN(C(=O)C1CCC(=O)N(CCc2ccc(Cl)cc2)C1)C1CCOCC1 (stereo not drawn) | -13.1% | i
COCCN1C(=O)c2ccccc2C(C(=O)NCc2ccco2)C1c1c[nH]c2ccccc12 (stereo not drawn) | -5.3% | .
O=c1c(S(=O)(=O)c2ccc(Cl)cc2)cn(Cc2cccc(F)c2)c2ccc(F)cc12 | -4.8% | -8.9%
Cc1ccc(C(=O)Nc2c(C(=O)NCc3ccco3)cnn2-c2ccccc2)cc1 | -3.0% | i
COC(=O)c1ccccc1NC(=O)CSc1nc(C)cc(C)n1 | -8.6% | -21.9%
CCc1cc(OCCCCNCc2ccccc2)ccc1Cl | -28.0% | -28.9%
Cc1ccccc1S(=O)(=O)Cc1ccc(C(=O)N2CCN(c3ccccc3F)CC2)o1 | -12.2% | -9.8%
O=C(NCCO)/C(=C/c1ccc2c(c1)OCO2)NC(=O)c1ccc(Br)cc1 | -7.6% | -7.2%
Cn1c(=O)c2c(-c3ccc(Br)cc3)n(Cc3ccc(F)cc3)cc2n(C)c1=O | -7.2% | -7.9%
Cc1ccc(OCCC(=O)OCC(=O)NCCc2ccccc2)cc1 | 1.0% | 12.5%
COc1cc(C=O)ccc1OCCSc1ccc(C)cc1 | -6.9% | i
Cc1ccc(Oc2ccc(NC(=O)CCC(=O)OCC(=O)c3cccs3)cc2)cc1C | -3.4% | -17.2%
Cc1cccc(-n2ncc3c(N4CCCC(C)C4)ncnc32)c1 (stereo not drawn) | 1.9% | -5.8%
CN(CC(=O)N1CCN(c2cccc(Cl)c2)CC1)S(=O)(=O)c1cnc[nH]1 | -13.2% | -22.2%
COc1cc(/C=C2\C(=N)N3N=CSC3=NC2=O)ccc1OS(=O)(=O)c1ccccc1 | -2.5% | -19.0%
CC(NC(=O)c1ccccc1)C(=O)NC1CCCc2ccccc21 (stereo not drawn) | -3.2% | -11.6%
O=C(CC(NCc1ccccn1)C(=O)O)Nc1ccccc1Cl (stereo not drawn) | -9.8% | i
Cc1nn(-c2ccccc2)c(Cl)c1/C=C/C(=O)c1ccccc1 | -15.1% | i
O=C(COC(=O)c1cc(Cl)ccc1O)NCCNC(=O)COC(=O)c1cc(Cl)ccc1O | -10.8% | -15.2%
Cc1ccc(C)c(NC(=O)C2(C)CCN2C(=O)C(C)C)c1 (stereo not drawn) | -10.9% | 3.3%
CC(C)(C)OC(=O)N1CCNc2ccccc2C1 | -21.2% | .
Cc1ccc(-c2nnn(C(C)C(=O)N3c4ccccc4CCc4ccccc43)n2)cc1 (stereo not drawn) | 2.6% | .
O=C(CCSc1ccccc1)Nc1nc2c(s1)COc1ccccc1-2 | ? | ?
COC(=O)c1cc(OC)c(OC)cc1NCC(=O)Nc1cccc(C(F)(F)F)c1 | -21.4% | -27.6%
COc1ccc(C(=O)NCCNc2ncc(C(F)(F)F)cc2Cl)cc1[N+](=O)[O-] | -29.9% | -28.4%
CC1CCCCN1CCNC(=O)c1ccc2c(c1)N(Cc1cccc(Cl)c1)C(=O)c1ccccc1S2=O (stereo not drawn) | ? | -3.6%
O=C(c1ccco1)N1N=C(c2ccccc2)CC1c1ccc2nccnc2c1 (stereo not drawn) | -16.7% | -21.6%
Cc1ccc(S(=O)(=O)N2CCN(CC(=O)Nc3ccccc3C(=O)NC3CC3)CC2)cc1 | -7.5% | -26.5%

(next part)
SMILES | Vaccinia Venus | VACV mCherry inh
COc1ccc(N)c(C)c1 | -6.5% | -11.1%
O=C(COC(=O)c1cc(S(=O)(=O)N2CCOCC2)ccc1Cl)c1ccc[nH]1 | -8.4% | i
Cc1cccc(CN2C(=O)N/C(=C/c3ccc(C)s3)C2=O)c1 | ? | .
Cc1cc(NC(=O)CCC(=O)N(CCC(C)C)C(C(=O)NCC2CCCO2)c2ccccc2C)no1 (stereo not drawn) | -21.3% | -6.5%
CC(C)(C)n1nnnc1CN(Cc1cccnc1)Cc1ccccc1Cl | -15.5% | -20.1%
CC[C@@H](NCCCn1ccc(NC(=O)OCc2ccccc2)nc1=O)c1ccccc1 | -15.0% | ?
Cn1cc(S(=O)(=O)c2ccccc2)c(=O)c2cc(Cl)ccc21 | 0.0%[7.34 µM] | i[7.34 µM]
O=C(NCc1ccc(S(=O)(=O)NC2CCCCC2)s1)c1ccccc1 | 3.2% | 3.0%
COc1ccccc1-c1noc(-c2ccc(N3CCN(C)CC3)c([N+](=O)[O-])c2)n1 | -26.2% | -10.2%
O=C(NCc1ccc(OC(F)(F)F)cc1)C12CN(Cc3ccccc3)CC1C(c1cccc([N+](=O)[O-])c1)=NO2 (stereo not drawn) | -21.0% | -17.5%
O=C(NCCc1ccccc1)c1cccc(NC(=O)C2CCCCC2)c1 | -19.5% | i
CC1(C)CC(=O)C2=C(C1)N(c1cccnc1)C(N)=C(C#N)C2c1cccs1 (stereo not drawn) | -12.5% | -12.7%
COc1ccccc1C(=O)NC(=O)COC(=O)c1ccco1 | -5.3% | -19.6%
COc1ccc(S(=O)(=O)NC(C)C(=O)NCCN2CCOCC2)cc1Cl (stereo not drawn) | -6.0% | -15.2%
CCCOc1cccc(C(=O)Nc2cc(-c3nc4ccccc4[nH]3)ccc2C)c1 | -24.9% | -24.2%

In the list so far, two contain a COOH group.
SMILES | Vaccinia Venus | VACV mCherry inh
Cc1cc(C(=O)Nc2cccc(C(=O)O)c2)oc1C | -9.7% | -11.3%
O=C(CC(NCc1ccccn1)C(=O)O)Nc1ccccc1Cl (stereo not drawn) | -9.8% | i

Some of these compounds in order of length of the SMILES, lowest first:
SMILES | Vaccinia Venus | VACV mCherry inh
COc1ccccc1C(=O)NC(=O)COC(=O)c1ccco1 | -5.3% | -19.6%
CCCOc1cccc(C(=O)Nc2cc(-c3nc4ccccc4[nH]3)ccc2C)c1 | -24.9% | -24.2%
CC[C@@H](NCCCn1ccc(NC(=O)OCc2ccccc2)nc1=O)c1ccccc1 | -15.0% | ?

(cont.)
SMILES | Vaccinia Venus | VACV mCherry inh
CC(=O)c1ccc(Nc2c([N+](=O)[O-])ccc3nonc23)cc1 | -10.2% | ?
Cc1nc2c(-c3ccc(F)cc3)cnn2c(N)c1-c1ccc(F)cc1 | ? | -1.8%
CCOc1ccccc1NS(=O)(=O)c1c(C)noc1C | 14.2% | 7.8%
CCCCn1c(=S)[nH]c2ncccc2c1=O | -7.6% | i
CC(=O)Nc1nc(COc2ccccc2)cs1 | -10.8% | -12.6%
COc1ccc(NC(=O)CSCc2cc(=O)n3c(C)csc3n2)cc1 | 8.2%[7.34 µM] | 11.8%[7.34 µM]
COC(=O)c1c(NC(=O)CC2Nc3cc(C)c(C)cc3NC2=O)sc(C)c1C (stereo not drawn) | 6.2% | i
Cc1cccn2c(CNCC3OCCc4ccccc43)c(C(=O)N3CCCCC3)nc12 (stereo not drawn) | 8.6% | i
O=C(Cc1c(O)c2ccccc2[nH]c1=O)OC1CCCCC1 | ? | .
CCOC(=O)c1c(NC(C)=O)c2c3c(sc2n1Cc1cc(C)ccc1C)CCCC3 | -5.3% | 2.7%
COc1ccc2nc(SC)cc(C)c2c1 | -7.6% | -10.0%
COc1cccc(C(=O)NC2(C(F)(F)F)C(=O)Nc3c2c(=O)[nH]c(=O)n3-c2ccc(C)cc2)c1 (stereo not drawn) | 4.9% | -9.4%
Cc1cc(C)c(S(=O)(=O)c2ccccc2)c(N(C)C)n1 | -10.5% | .
COc1cc2c3nnc(-c4ccc(F)cc4)c-3cn(Cc3ccc(F)cc3)c2cc1OC | 2.0% | -7.5%
CCc1ccc2c(c1)NC(=O)C2(C)Cc1ccccc1C#N (stereo not drawn) | -29.1% | 0.0%
